Assay outcomes (PubChem)
N370S GC mod: inhibits or activates N370S mutant glucocerebrosidase | P04062 | N370S GC spleen homogenate, 4MU-glucoside fluorescence | Potency, µM (top dose mostly 59.4 µM), without a hit: at the highest dose activity change, negative = inhibition, most hits filed as inhibitors | actives 0.092% (n = 330,000) | AID 2101;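 also: 0% = full enzyme activity and -100% = no enzyme basal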
TDP1 inh: inhibitors of human tyrosyl-DNA phosphodiesterase TDP1 | Q9NUW8 | recombinant TDP1, AlphaScreen DNA substrate cleavage | Potency, µM (top dose mostly 130 µM), for inactives: at the highest dose activity change, negative = inhibition, usual class: inhibitors | actives 0.28% (n = 350,000); also: nearly all actives have a fitted effect of over 40% in size
Target sequence (Q9NUW8 whole entry, looked up): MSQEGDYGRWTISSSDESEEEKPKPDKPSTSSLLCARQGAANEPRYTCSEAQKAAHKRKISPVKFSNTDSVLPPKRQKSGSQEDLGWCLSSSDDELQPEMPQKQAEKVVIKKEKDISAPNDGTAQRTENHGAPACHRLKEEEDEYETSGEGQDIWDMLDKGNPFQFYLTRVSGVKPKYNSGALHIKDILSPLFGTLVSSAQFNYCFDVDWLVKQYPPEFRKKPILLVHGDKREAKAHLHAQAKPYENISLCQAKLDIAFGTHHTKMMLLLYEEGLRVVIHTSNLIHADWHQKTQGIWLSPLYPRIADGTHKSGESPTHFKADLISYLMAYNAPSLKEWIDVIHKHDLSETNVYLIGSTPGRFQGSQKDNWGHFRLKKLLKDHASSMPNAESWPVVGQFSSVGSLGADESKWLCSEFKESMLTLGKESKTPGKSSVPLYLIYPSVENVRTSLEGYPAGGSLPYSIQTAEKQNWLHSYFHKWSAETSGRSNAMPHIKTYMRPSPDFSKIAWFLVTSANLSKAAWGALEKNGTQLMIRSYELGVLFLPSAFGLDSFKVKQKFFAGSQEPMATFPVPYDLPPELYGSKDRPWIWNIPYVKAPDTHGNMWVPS
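Tdp1 1 nM final; 15 min RT w/ cpd; substrate 15 nM, 5 min; beads 10 ug/ml, 10 min; AlphaScreen read. Neg ctrl: no enzyme.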
Numbers without * were called inactive; ? = inconclusive; · = not tested or not shown; & = joins results of further samples; [ ] = remark or other dose. Calls follow the shape of the dose curve; as a rule, active = well fitted curve in the direction sought with a large enough effect; inconclusive = small, poorly fitted or top-dose-only effect, or another doubt; inactive = no such curve, though single readings can be large; an effect the other way counts as inactive or inconclusive. Unless noted, % is scaled to controls: 0 for no effect and ±100 for the full control effect; potency is read from the fitted curve at half-maximal effect. These rows are one share of the data, and most or all hits are left out here.

SMILES	N370S GC mod	TDP1 inh
CC(C)(C)C1=NN(C(=O)c2ccccc2)C(O)(C(C)(C)C)C1 (stereo unspecified)	5%	1%
Cc1[nH]c2ccccc2c1C(=O)C(=O)N1CCCc2ccccc21	27%	-5%
Cc1nc2ncnn2c(C)c1Cc1cccc(F)c1	7%	5%
COC(=O)c1ccc(Nc2cc(C)nc3ccccc23)cc1	-14%	4%
Cc1cc(N2CCN(S(=O)(=O)c3ccc(C)c(C)c3)CC2)c2ccccc2n1	?	8%
Cc1ccccc1CS(=O)(=O)c1cn(CC(=O)N2CCOCC2)c2ccccc12	-11%	1%
CC(NC(=O)Cc1cccs1)C(c1cccs1)N1CCN(c2ccccc2F)CC1 (stereo unspecified)	-11%	1%
COC(=O)C(C(=O)OC)C(C(=O)OC)C(C(=O)OC)C(=O)OC	9%	-1%
CC(=O)N1CCN(CCN=CC2=C(O)CC(c3ccc(Cl)cc3)CC2=O)CC1 (stereo unspecified)	-3%	6%
CN(C(=O)CSc1nc2ccccc2c(=O)n1-c1ccccc1Cl)C1CCS(=O)(=O)C1 (stereo unspecified)	·	1%
Cc1ccc(C(=O)NCC(=O)Nc2cccc(C(F)(F)F)c2)cc1	0%	2%
Cn1cc(S(=O)(=O)N2CCCC2)cc1C(=O)N1CCN(c2cccc(Cl)c2)CC1	-2%	-4%
CCc1ccc(N/C(N)=N/c2nc(CSc3ccccn3)cc(=O)[nH]2)cc1	10%	8%
O=C(Cc1c(Cl)cccc1Cl)Nc1cccnc1	-4%	-1%
COc1ccccc1N1CCN(C(=O)c2ccc(S(=O)(=O)N3CCCCC3)cc2)CC1	-4%	5%
Cc1cccc(OS(=O)(=O)NC(=O)OCC2CCCN3CCCCC23)c1 (stereo unspecified)	-6%	1%
CCCCNC(=O)c1onc(CS(=O)(=O)c2ccccn2)c1C(=O)NCCCC	-4%	-2%
CCOc1ccc2nc(N3CCCN(C(=O)Nc4ccccc4C)CC3)c(C#N)cc2c1	-5%	·
CC(Sc1nncs1)C(=O)Nc1ccc2c(c1)OCO2 (stereo unspecified)	4%	6%
Cc1cc(OCC(=O)OCC(=O)N2CCc3ccccc32)ccc1Cl	·	-6%[56.1 µM]
Cc1ccnc(N2CCC(C(=O)NNC(=O)c3ccccc3)CC2)n1	13%	5%
O=C(c1cccc(C(F)(F)F)c1)C1CCCN(C(=O)CCn2cnnn2)C1 (stereo unspecified)	-4%	·
CCC(=O)Nc1nc2ccc3nc(C)sc3c2s1	0%	5%
COc1ccccc1NS(=O)(=O)c1cccc(C(=O)NC2CCN(Cc3ccccc3)CC2)c1	-14%	0%
O=S(=O)(CCCc1ccccc1)c1ncn[nH]1	-10%	4%
COc1ccc(CCNC(=O)C(=O)NCC2CCCN2S(=O)(=O)c2cccs2)cc1OC (stereo unspecified)	-6%	·
COc1cccc(/C=N/n2c(N)c(S(=O)(=O)c3cccs3)c3nc4ccccc4nc32)c1OC	-19%	5%
COc1ccccc1NC(=O)CCN1CCN(c2ccc(Cl)cc2)CC1	-20%	·
Cc1ccc2c(=O)cc(C(=O)Nc3sc4c(c3C(=O)NCc3cccnc3)CCCC4)oc2c1C	·	7%
O=[N+]([O-])c1ccccc1Nc1nc(-c2cccnc2)cs1	-2%	·
Nc1cc(=O)nc(SCc2ccccc2)n1Cc1ccco1	2%	9%
Cn1c(=O)cc(SCC(=O)NCC2COc3ccccc3O2)c2ccccc21 (stereo unspecified)	9%	5%
Cc1cccc(-n2nnc(C(=O)NC3CCCc4ccccc43)c2N)c1 (stereo unspecified)	?	2%
Cc1ncoc1C(=O)N1CCCC(C(=O)c2ccc(C(F)(F)F)cc2)C1 (stereo unspecified)	1%	-8%
COc1ccc2c(c1)C(c1ccc([N+](=O)[O-])cc1)=NNC(c1ccco1)=N2	12%	14%
COc1ccc(C2=NO[C@@H]3[C@@H]4C[C@@H]([C@H]5C(=O)N(C)C(=O)[C@@H]45)[C@H]23)c(OC)c1	4%	5%
CCOc1ccccc1NC(=O)C1CCN(c2nc(-c3ccc(OC)cc3)no2)CC1	-8%	·
Fc1ccc(NC(=S)NCc2ccc3c(c2)OCO3)cc1	-8%	-5%
Cc1ccc(S(=O)(=O)NCCC(=O)OCC(=O)N2CCCC2=O)cc1C	-8%	6%
CN(C)c1cccc(Oc2nc3c(c(=O)n(C)c(=O)n3C)n2C)c1	3%	·
CCn1c(SCC(=O)N2CCN(c3ccc(F)cc3)CC2)nc2ccccc2c1=O	5%	1%
O=P(O)(CP(=O)(c1ccccc1)c1ccccc1)c1ccccc1O	5%	0%
CCOC(=O)C1=C(O)/C(=C/c2cc(C)n(-c3ccccc3)c2C)N=C1C	-2%	-2%
CCOC12NC(=O)CC(=O)N1C(c1ccccc1)=CS2 (stereo unspecified)	3%	0%
Cc1ccc(-c2nnc3ccc(SCC(=O)NCc4ccco4)nn23)cc1	21%	-8%
CCCN1CCN(CC(=O)Nc2cc(OCC)ccc2OCC)CC1	-12%	·
CC(C)N(C(=O)Cn1c(SCC(=O)Nc2nccs2)nc2ccccc21)C(C)C	4%	5%[56.1 µM]
O=C(NCCC1=CCCCC1)c1ccc(CN2CCOCC2)cc1	-2%	-2%
Cc1ccc(C)c(C(C)NC(=O)c2ccc(Br)o2)c1 (stereo unspecified)	-2%	-1%
CCc1nnc(NC(=O)C2CC(=O)N(c3ccc(C)cc3)C2)s1 (stereo unspecified)	-5%	0%
O=C(OC(C(=O)NCc1cccs1)c1ccccn1)c1cccs1 (stereo unspecified)	15%	2%
COc1ccc(S(=O)(=O)NC(C)C(=O)N2CCCCCC2)cc1 (stereo unspecified)	-12%	·
Cc1cccc(N2CCN(C(=O)CCn3c(=O)[nH]c4ccsc4c3=O)CC2C)c1 (stereo unspecified)	0%	2%
COc1ccccc1NC(=S)NC(NC(C)=O)C(Cl)(Cl)Cl (stereo unspecified)	-6%	·
CN(C)c1ccc(CN(C(=O)c2ccccc2Br)C2CCS(=O)(=O)C2)cc1 (stereo unspecified)	3%	4%
Cc1c(N2C(=O)c3ccc(F)cc3C2=O)c(=O)n(-c2ccccc2)n1C	6%	5%
COC(=O)COc1cc(Cl)c(C=O)cc1OC	-29%	-8%
O=C(COc1cccc(Cl)c1)NCc1ccccc1	-2%	·
C1CN(CC23CC4CC(CC(C4)C2)C3)CCO1	7%	4%
Cc1ccc(S(=O)(=O)Nc2ccc3c(c2)CCC3)cc1C	23%	0%
Remaining list, next part:
SMILES	N370S GC mod	TDP1 inh
COc1ccc(CC(=O)Nc2c(C(=O)N3CCN(c4ncccn4)CC3)oc3ccccc23)cc1	-21%	3%
O=C(Cn1c(=O)c2c(ncn2Cc2ccccc2)n(Cc2ccccc2)c1=O)NC1CC1	-6%	1%
Cc1nc2c(C(=O)NCc3ccccc3)c[nH]n2c(=O)c1Cl	1%	-3%
FC(F)(F)c1cc(NC2CCCCC2)ccn1	-1%	·
CN(C)S(=O)(=O)c1ccc(N/C=C(\[N+](=O)[O-])S(=O)(=O)c2ccccc2)cc1	-1%	·
C=CCNc1oc(Cc2cccc3ccccc23)nc1C#N	-4%	7%
CCCCCCNC(=O)CC(NS(=O)(=O)c1ccc(OC)cc1)C(C)C (stereo unspecified)	-6%	5%
CCN=C1SC(CC(=O)Nc2ccc(C)cc2)C(=O)N1CC (stereo unspecified)	4%	2%
CC(=O)c1ccc(N2CCN(C(=O)COc3ccccc3F)CC2)c(F)c1	16%	2%
CCN(CC)c1nc(C(N)=O)cc(-c2ccccc2)n1	22%	-1%
O=C(NCCN1CCOCC1)c1cc(-c2ccc(Cl)cc2)on1	-6%	5%
O=C(c1ccc([N+](=O)[O-])cc1)N1CCSC1c1ccc(Br)cc1 (stereo unspecified)	-5%	6%
CCc1ccc(NC(=O)Nc2cc(C(=O)O)ccc2N2CC3CC(C2)c2cccc(=O)n2C3)cc1 (stereo unspecified)	-1%	3%
Cc1nc2oc3c(=O)[nH]cnc3c2c2c1COC(C)(C)C2	21%	-5%
CCOc1cc(S(=O)(=O)NCCc2cccc(C)c2)c(OCC)cc1-n1cnnn1	2%	6%
COc1ccc(C(C)=O)cc1CSc1nc2cc(C(=O)O)ccc2c(=O)n1Cc1ccccc1	5%	3%
CCn1c(SCC(=O)Nc2cccc(F)c2)nc2c(c1=O)SC(C)C2 (stereo unspecified)	5%	0%
COC(=O)c1cc(CNC(=O)c2sccc2-c2ccccc2)ccc1OC	-12%	0%
Cc1cccc(-c2nnc(SCC(=O)Nc3cc(C)on3)n2C)c1	1%	·
CCC(C)(C)NC(=O)C(c1cccnc1)N(C(=O)c1csnn1)c1ccc(C)cc1 (stereo unspecified)	4%	-3%
COc1cccc(C(=O)NCCS(=O)(=O)N2CC(C)CC(C)C2)c1 (stereo unspecified)	3%	-13%[0.505 µM]
Cc1ccc(S(=O)(=O)CCC(=O)N2CCc3ccccc32)cc1	2%	2%
COc1ccc(NC(=O)c2ccco2)cc1NC(=O)c1ccc(C#N)cc1F	0%	2%&1%
CSc1nc(=S)n(-c2ccccc2)c(C)c1C(C)=O	-2%	·
CCCN1CCN(c2ccc([N+](=O)[O-])cc2C#N)CC1	-4%	3%
O=C(Nc1ccc(Br)cc1)c1ccc(CSC2=NCCS2)cc1	23%	-4%
CN1C(=O)C(O)(C2OC(C)(C)CCC2=O)c2ccccc21 (stereo unspecified)	2%	-1%
Cc1cccn2c(=O)c(/C=C(\C#N)S(=O)(=O)c3ccccc3)c(N3CCN(C)CC3)nc12	-1%	4%
CCn1nnnc1SCC(=O)Nc1ccc(F)cc1	2%	-5%
NC(=O)COc1c(-c2ccco2)oc2ccccc2c1=O	7%	4%
CCCCN(C(=O)c1ccc(C)c(S(=O)(=O)N2CCOCC2)c1)c1c(N)n(CCCC)c(=O)[nH]c1=O	6%	0%[0.505 µM]
CCCCCCOc1ccc(-c2ccc(C#N)cn2)cc1	7%	-3%
CCOC(=O)Cn1c(=O)n(Cc2ccccc2)c(=O)c2cccnc21	27%	·
COc1ccc(/C=N/NC(=O)C2C3CCCCC32C)cc1OC (stereo unspecified)	4%	3%
CCOC(=O)c1c(NC(=O)CSc2nnc(CNc3ccc(Cl)cc3)o2)sc(C)c1C	24%	7%
Cc1ccc(NC(=O)COC(=O)CCc2c[nH]c3ccccc23)cc1[N+](=O)[O-]	1%	4%
O=C(Nc1ccc(S(=O)(=O)N2CCCCC2)cc1)C1CCCN(C(=O)c2ccc(Cl)cc2)C1 (stereo unspecified)	9%	-3%
Cn1nc(C(=O)NCCCN2CCCCC2)c2c1-c1ccccc1SC2	0%	2%
O=C(O)c1[nH]c2ccccc2c1NS(=O)(=O)Cc1ccccc1	6%	3%
CCC(=O)c1cc(F)ccc1OCC(=O)N1CCN(c2ccc(F)cc2)CC1	-5%	-3%
CCN(CC)c1ccc(N2C(=NC(=O)C3CCCO3)SC3CS(=O)(=O)CC32)cc1 (stereo unspecified)	?	3%
CN(CC(=O)N1CCN(c2ccccn2)CC1)S(=O)(=O)c1ccc(Br)cc1	3%	4%
O=C(NCc1ccccc1)C1(c2ccccc2)CCN(S(=O)(=O)c2ccccc2)CC1	9%	1%
CCN1C(=O)/C(=C2\SC(=S)N(NC(=O)c3ccccc3O)C2=O)c2ccccc21	-3%	·
Cc1c(S(=O)(=O)NC2CCCCC2)c(=O)n(C)c(=O)n1C	-2%	·
COc1cc(OC)cc(C(=O)OCC(=O)NC(C)CCc2ccccc2)c1 (stereo unspecified)	-3%	-5%
CC(C)(C)c1ccc(OCC(=O)Nc2ccc(C(=O)Nc3ccccc3C(=O)O)cc2)cc1	-2%	-9%
COc1cc(C(=O)NC(=S)Nc2ccc([N+](=O)[O-])cc2)cc(OC)c1OC	-4%	5%
COc1ccccc1C(=O)C1CCCN(Cc2ccc3c(c2)OCCO3)C1 (stereo unspecified)	1%	2%
Cc1ccc(CNC(=O)COC(=O)c2cnccn2)cc1	11%	2%

Structural class: the compounds so far with an aryl thioether with sulfur outside any ring
SMILES	N370S GC mod	TDP1 inh
CN(C(=O)CSc1nc2ccccc2c(=O)n1-c1ccccc1Cl)C1CCS(=O)(=O)C1 (stereo unspecified)	·	1%
CCc1ccc(N/C(N)=N/c2nc(CSc3ccccn3)cc(=O)[nH]2)cc1	10%	8%
CC(Sc1nncs1)C(=O)Nc1ccc2c(c1)OCO2 (stereo unspecified)	4%	6%
Nc1cc(=O)nc(SCc2ccccc2)n1Cc1ccco1	2%	9%
Cn1c(=O)cc(SCC(=O)NCC2COc3ccccc3O2)c2ccccc21 (stereo unspecified)	9%	5%
CCn1c(SCC(=O)N2CCN(c3ccc(F)cc3)CC2)nc2ccccc2c1=O	5%	1%
Cc1ccc(-c2nnc3ccc(SCC(=O)NCc4ccco4)nn23)cc1	21%	-8%
CC(C)N(C(=O)Cn1c(SCC(=O)Nc2nccs2)nc2ccccc21)C(C)C	4%	5%[56.1 µM]
COc1ccc(C(C)=O)cc1CSc1nc2cc(C(=O)O)ccc2c(=O)n1Cc1ccccc1	5%	3%
CCn1c(SCC(=O)Nc2cccc(F)c2)nc2c(c1=O)SC(C)C2 (stereo unspecified)	5%	0%
Cc1cccc(-c2nnc(SCC(=O)Nc3cc(C)on3)n2C)c1	1%	·
CSc1nc(=S)n(-c2ccccc2)c(C)c1C(C)=O	-2%	·
CCn1nnnc1SCC(=O)Nc1ccc(F)cc1	2%	-5%
CCOC(=O)c1c(NC(=O)CSc2nnc(CNc3ccc(Cl)cc3)o2)sc(C)c1C	24%	7%
